# Screening data from PubChem.
# Cruzain inh Det – cruzain (T. cruzi) inhibition with detergent. Potency, µM, inactives show max response, negative = inhibition, most hits filed as inhibitors. P25779. purified cruzain, Z-FR-AMC fluorescence, 0.01% Triton. 0.43% of 200,000 active;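 further: plate controls were neutral wells for no effect and buffer without enzyme for full effect; nearly all actives have a fitted effect of over 40% in size; top concentration of the series not given in the record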
# Target sequence (P25779 123-467 limits assumed): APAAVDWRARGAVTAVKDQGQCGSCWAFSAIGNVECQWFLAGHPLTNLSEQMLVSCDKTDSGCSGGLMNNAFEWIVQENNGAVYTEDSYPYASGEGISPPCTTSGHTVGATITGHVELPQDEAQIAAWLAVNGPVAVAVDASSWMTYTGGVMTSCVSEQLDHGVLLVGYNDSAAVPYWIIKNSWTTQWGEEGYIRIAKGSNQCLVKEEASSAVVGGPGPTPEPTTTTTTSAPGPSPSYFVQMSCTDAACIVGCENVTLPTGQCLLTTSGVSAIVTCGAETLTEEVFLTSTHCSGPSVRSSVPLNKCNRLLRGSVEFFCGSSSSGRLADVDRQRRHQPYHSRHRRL
#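 Compounds were screened in titration against cruzain (1.5 nM) with 0.01% Triton X-100 to counter colloidal aggregation. Activity was the AMC fluorescence increase over 60 s after adding 2 uM Z-FR-AMC at pH 5.5.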
# NS1 inh – inhibitors of influenza NS1 protein function; S. cerevisiae slowed by influenza A NS1, growth recovery by OD600; Potency, µM (top dose mostly 46.1 µM), for inactives: top-dose activity, positive = more growth; 0.4% of 270,000 active; AID 2326; active means well fitted rising curve with a large enough effect; inconclusive means small, poorly fitted or top-dose-only effect; inactive means no such curve, though single readings can be large or run the other way; further: nearly all actives have a fitted effect of over 50% in size
#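 S. cerevisiae expressing influenza A NS1, grown in glucose, washed, then diluted 1:100 into pH 6.0 -URA galactose medium with 23 nl compound. Growth recovery read as OD600; NS1-free strain serves as control.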
# RE007 growth inh – less growth of the S. pombe RE007 Vpr strain | 0.21% of 360,000 active | AID 651644 | Potency, µM (series often up to 92.2 µM), for inactives: at the highest dose activity change, negative = less growth | S. pombe RE007 Vpr strain, BacTiter-Glo ATP luminescence, 24 h; control for the full effect not named in the record; active = well fitted falling curve with a large enough effect; inconclusive = small, poorly fitted or top-dose-only effect; inactive = no such curve, though single readings can be large or run the other way;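 further: on the % scale 0 is the no-effect control and ±100 the full control effect; nearly all actives have a fitted effect of over 50% in size; the assay follows cell death caused by Vpr and the record does not say whether a fall means rescue or toxicity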
#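 Fission yeast RE007 carrying one integrated HIV-1 vpr copy, seeded at OD 0.01 in PMG+AL medium with 23 nL pinned compound. Grown 24 h at 30 degrees; viability read by BacTiter-Glo luminescence after 5 min.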
# Cruzain noTriton – inhibitors of Trypanosoma cruzi cruzain without detergent; purified cruzain, Z-FR-AMC fluorescence, no detergent; Potency, µM, for inactives: max response, negative = inhibition, hits mostly inhibitors; 2.3% of 200,000 active; AID 1476;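 further: plate controls were enzyme without inhibitor for no effect and buffer without enzyme for full effect; nearly all actives have a fitted effect of over 40% in size; top concentration of the series not given in the record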
#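 Purified cruzain at 1.5 nM, pre-incubated 15 min with compound at room temperature in 100 mM sodium acetate pH 5.5, 5 mM DTT, 0.00005% Triton X-100. Reaction started with 2 uM Z-FR-AMC; AMC fluorescence increase over 60 s gives rate.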
# LASV entry inh – blocks Lassa virus binding to or entry into cells. AID 540256. Lassa virus pseudotype entry inhibition, cell reporter; control for the full effect not named in the record. Potency, µM (titrated, usually from 37.9 µM), for inactives: at the highest dose activity change, negative = inhibition, actives largely listed as inhibitors. 1.2% of 300,000 active; active means well fitted inhibition curve with a large enough effect; inconclusive means small, poorly fitted or top-dose-only effect, or effect the other way; inactive means flat fitted curve, though single readings scatter; tested in HEK293 cells; further: on the % scale 0 is the no-effect control and ±100 the full control effect; nearly all actives have a fitted effect of over 50% in size; luciferase read-out
# SARS PLP yeast – blocks SARS-CoV papain-like protease in a yeast assay. S. cerevisiae expressing SARS-CoV PLpro, growth rescue; control for the full effect not named in the record. AID 485353. Potency, µM (series often up to 32.9 µM), for inactives: at the highest dose activity, positive = growth rescue. 0.19% of 330,000 active; active means well fitted rising curve with a large enough effect; inconclusive means small, poorly fitted or top-dose-only effect; inactive means no such curve, though single readings can be large or run the other way; further: 0% is about no effect; nearly all actives have a fitted effect of over 55% in size; growth read by luminescence after 48 h
# 2A StopGo – lowers the luciferase signal of an FMDV 2A StopGo reporter; human cells with a luciferase reporter of 2A StopGo recoding; control for the full effect not named in the record; Potency, µM (top dose mostly 57.9 µM), inactives show top-dose signal change, negative = less light; 1.2% of 410,000 active; active = well fitted falling curve with a large enough effect; inconclusive = small, poorly fitted or top-dose-only effect; inactive = no such curve, though single readings can be large or run the other way; tested in HEK293T cells; further: on the % scale 0 is the no-effect control and ±100 the full control effect; nearly all actives have a fitted effect of over 45% in size; luciferase light after 4 h
# MARV entry inh – blocks Marburg virus binding to or entry into cells; Potency, µM (series often up to 37.8 µM), inactives show at the top dose activity change, negative = inhibition, usual class: inhibitors; 1.8% of 300,000 active; Marburg virus pseudotyped entry inhibition, cell reporter; control for the full effect not named in the record; about a third of the inactives were read at about 46 µM; active = well fitted inhibition curve with a large enough effect; inconclusive = small, poorly fitted or top-dose-only effect, or effect the other way; inactive = flat fitted curve, though single readings scatter; tested in HEK293 cells; about a fifth of its hits are not listed in these tables; further: on the % scale 0 is the no-effect control and ±100 the full control effect; luciferase read-out
# Numbers without * were called inactive; ? = inconclusive; . = not tested or not shown; [ ] = remark or other dose. Unless noted, the call rests on the fitted dose curve; in most records, active means well fitted curve in the direction sought with a large enough effect; inconclusive means small, poorly fitted or top-dose-only effect, or another doubt; inactive means no such curve, though single readings can be large; an effect the other way counts as inactive or inconclusive. Potency means the concentration at half of the fitted maximal effect.
SMILES,Cruzain inh Det,NS1 inh,RE007 growth inh,Cruzain noTriton,LASV entry inh,SARS PLP yeast,2A StopGo,MARV entry inh
CCCCNC(C(=O)Nc1ccc(Cl)c([N+](=O)[O-])c1)c1ccccc1 (stereo not given),-1.4%,-12.8%,26.6%,-2.7%,-20.7%,-21.8%,5.2%,0.0%
COc1ccc(C2NC(=S)N(c3ccccc3)C(C)=C2C(=O)Nc2ccccc2)cc1 (stereo not given),-1.1%,?,5.1%,-17.3%,-24.7%,3.7%,12.8%,-18.2%
Cc1ccnc(NS(=O)(=O)c2ccc(NC(=O)Cc3cccs3)cc2)n1,-3.8%,8.6%,14.8%,-24.9%,-5.8%,4.1%,11.2%,11.7%
Cc1nc(NCC2CCCO2)c2nnn(Cc3ccccc3)c2n1 (stereo not given),0.1%,?,-4.2%,11.3%,0.2%,4.1%,10.2%,17.0%
CC(C)C(=O)NCC(c1ccc2c(c1)OCO2)N1CCN(c2ccccc2F)CC1 (stereo not given),-1.9%,.,.,-3.5%,-1.9%[46.1 µM],.,-11.7%,.
O=C(COC(=O)CCCC1=NS(=O)(=O)c2ccccc2N1)Nc1ccccc1,.,-1.9%,-12.9%,.,8.2%[46.1 µM],1.2%,25.4%,3.9%[46.1 µM]
CCOCCc1nn2c(=O)cc(COC(=O)Cc3ccccc3)nc2s1,-2.6%,.,.,-6.7%,5.9%[46.1 µM],.,-21.7%,.
Cn1c(=O)n(Cc2ccccc2Br)c2ccccc21,.,3.0%,1.1%,.,.,1.1%,-15.1%,?
CCOCCCn1c(SCC(=O)Nc2cc(C(C)(C)C)nn2-c2ccccc2)nc2ccccc2c1=O,-5.7%,-11.3%,-16.1%,?,4.9%,-8.7%,-10.0%,?
C=Cn1cc[n+](CC(=O)c2ccc(Cl)c(Cl)c2)c1,.,-10.5%,-7.5%,.,.,2.4%,-12.5%,.
Cc1ccc(S(=O)(=O)Nc2nc3cc(C)c(C)cc3[nH]2)cc1,.,3.4%,-7.2%,.,-15.1%,0.5%,-7.7%,?
O=C(Nc1ccon1)Nc1ccccc1C(F)(F)F,.,-7.6%,-3.6%,.,.,-5.4%,-15.3%,.
CN(C)c1nc(SCCOC(=O)Nc2ccccc2)nc(N(C)C)n1,-6.0%,-49.8%,34.5%,1.8%,0.7%,?,-5.3%,-0.1%
Oc1ccc(CCC2CCCCN2Cc2nc(C3CC3)no2)cc1 (stereo not given),.,-2.1%,0.5%,.,-27.9%,0.0%,-3.6%,3.1%[46.1 µM]
CC1CCC(NC(=O)COc2ccccc2C(N)=O)CC1 (stereo not given),7.6%,3.5%,-0.4%,1.2%,-3.1%,3.3%,17.1%,-5.0%[46.1 µM]
O=C(NCc1cccs1)c1csc2c1CCCCC2,-4.4%,?,6.7%,-1.1%,3.9%,8.9%,.,3.4%
CCOC(=O)c1c(NC(=O)C2c3ccccc3Oc3ccccc32)sc(C)c1C,-4.1%,.,.,?,17.4%[46.1 µM],.,?,-0.9%[46.1 µM]
COc1ccc(Br)cc1C(=O)Nc1ccc(Cc2ccncc2)cc1,-4.1%,-12.5%,-14.0%,2.5%,3.0%,-10.6%,-23.4%,1.0%
Cc1ccc(C(=O)NCC(=O)OC(C)C(=O)Nc2ccc(N3CCOCC3)cc2)s1 (stereo not given),.,-2.1%,9.3%,.,.,0.3%,14.0%,.
Cc1ccc(C(=O)NC(=S)NCc2cccnc2)c(C)c1,.,-6.0%,7.2%,.,-0.4%[46.1 µM],-0.3%,1.3%,-26.4%[46.1 µM]
CCc1cccc(C)c1NC(=O)CCS(=O)(=O)c1cc(Br)cc2c1N(C(=O)C1CC1)CC2,-1.0%,.,.,-3.0%,-13.2%[46.1 µM],.,-11.3%,?
COc1ccc(Br)cc1CNC(C)c1ccccc1 (stereo not given),-1.6%,-20.6%,-15.5%,3.5%,?,-13.7%,-6.4%,?
O=C1CNC(=O)N1Cc1ccc(Br)cc1,5.7%,0.4%,-8.6%,-5.4%,0.9%,10.7%,3.3%,0.7%
CCCn1c(SCC(=O)Nc2nnc(C)s2)nnc1-c1ccoc1C,3.7%,-0.9%,-2.8%,-14.5%,-1.2%,1.8%,-1.7%,?
CCc1ccc2c(COC(=O)CNS(=O)(=O)c3ccc(NC(C)=O)cc3)cc(=O)oc2c1,-4.4%,?,-0.4%,-0.1%,8.8%,16.2%,8.8%,?
O=C(CNC(=O)Cc1ccccc1)NCc1cccs1,.,.,-19.7%,.,13.2%,1.7%,-7.6%,-3.0%
OC(CN(Cc1ccccc1)Cc1ccccc1)c1ccccc1 (stereo not given),.,.,-5.3%,.,5.4%[46.1 µM],.,-25.7%,?
O=C(c1ccc(CN2CCOCC2)cc1)N1CCC(Cc2ccccc2)CC1,3.8%,-13.2%,-14.8%,1.5%,-18.4%,-4.8%,?,9.0%
CC1CCN(C(=O)c2ccc(NC(=O)c3cccs3)cc2)CC1,.,6.5%,-1.8%,.,-27.5%[46.1 µM],-3.3%,29.3%,-14.9%[46.1 µM]
COc1ccc(N/N=C(\C#N)C(=O)NCCc2ccc(OC)c(OC)c2)cc1,.,-1.5%,-9.2%,.,-26.4%,0.5%,5.1%,9.1%
COCc1nnc(NS(=O)(=O)c2ccc(F)cc2)s1,.,5.5%,0.1%,.,.,5.7%,-9.4%,.
S=C(c1ccco1)N1CCOCC1,.,.,-1.6%,.,17.8%[46.1 µM],.,-13.4%,24.4%
CCOC(=O)C1=C(Cc2ccc(C)cc2)C(=O)c2ccccc2C1=O,-12.9%,-189.8%,.,-14.5%,.,-39.4%,.,3.1%
O=C(NC(=S)Nc1ccc2c(c1)OCO2)c1ccc(Cl)cc1,-1.0%,-1.0%,-9.9%,-5.1%,?,0.5%,111.1%[activator],-2.5%
COc1ccc(C(=O)N/C(=C/c2ccccc2F)C(=O)NCCN2CCOCC2)cc1OC,.,7.4%,-6.7%,.,.,6.8%,0.0%,.
COc1cc2c(cc1OC)C(c1cc(OC)c(O)c(OC)c1)CC(=O)N2 (stereo not given),-0.1%,.,.,-1.4%,2.2%[46.1 µM],.,8.8%,-4.7%[46.1 µM]
COCCN=C1NN=C(c2ccc(NC(C)=O)cc2)CS1,.,4.2%,5.3%,.,.,13.7%,50.6%[activator],-16.6%[46.1 µM]
Cc1ccc(NC(=O)C(NS(=O)(=O)c2cccc3nsnc23)C(C)C)nc1 (stereo not given),-1.2%,11.9%,-5.5%,6.9%,.,-2.0%,-15.7%,.
Cc1nn(-c2ccccc2)c(N2CCCCC2)c1/C=N/O,0.7%,-3.1%,9.8%,-9.1%,5.1%,0.3%,-19.7%,-6.0%
Cc1ccc(S(=O)(=O)N2CCC(C(=O)Nc3nnc(-c4ccc(F)cc4)s3)CC2)cc1,-0.2%,-2.6%,-5.8%,?,0.7%,?,0.6%,-17.4%
COC(=O)C1=C(C)NC(=O)/C1=C\c1cc(C)n(-c2ccc(F)cc2)c1C,.,4.3%,-17.3%,.,-2.3%,-0.5%,19.4%,-1.4%[46.1 µM]
CC(C)NC(=O)NC(=O)COc1cccc2c1OC(C)(C)C2,5.3%,-10.2%,22.2%,12.9%,-5.4%,4.0%,-8.9%,17.5%
CCOc1ccc(C(=O)Cc2cc3cccc(OC)c3oc2=O)cc1,.,-2.3%,1.3%,.,10.6%[46.1 µM],-1.9%,21.0%,0.5%[46.1 µM]
S=c1nc(C2CC2)[nH]c2ccccc12,-3.6%,-37.5%,-6.9%,?,24.4%,13.4%,-2.7%,-11.0%
COc1cc(OC)cc(C(=O)N[C@H](C(=O)Nc2ccc3c(c2)OCO3)C(C)C)c1,.,-11.3%,-13.8%,.,.,-3.9%,1.0%,0.1%[46.1 µM]
CCCC(=O)NCCc1nc2ccccc2n1CCC,0.8%,-3.7%,3.0%,?,.,-5.9%,-20.7%,.
COc1ccc(CCNCc2sccc2C)cc1,.,6.9%,-1.0%,.,.,12.8%,18.5%,.
CN(Cc1ccccc1)C(=O)c1ccco1,.,2.2%,3.7%,.,9.9%[46.1 µM],0.4%,16.8%,5.8%[46.1 µM]
COc1ccc(NC(=O)COCc2cc(-c3cccs3)on2)cc1,-5.1%,.,.,3.8%,-0.9%[46.1 µM],.,10.0%,.
O=C(c1ccccc1)N1CCN(C(=O)c2ccccc2)CC1,-0.8%,1.3%,1.7%,4.0%,15.3%,13.1%,-18.2%,1.7%
CN1CCN(c2oc(-c3ccccc3)nc2S(=O)(=O)c2ccccc2)CC1,.,.,0.4%,.,12.3%[46.1 µM],10.8%,0.3%,-0.7%[46.1 µM]
Cc1cc(NC(=O)CCCC(=O)O)nc(C)n1,-0.8%,-2.2%,-12.3%,6.3%,11.6%,-0.4%,-2.4%,-1.0%

# 6 compounds already listed, sorted by number of heavy atoms, smallest number first:
SMILES,Cruzain inh Det,NS1 inh,RE007 growth inh,Cruzain noTriton,LASV entry inh,SARS PLP yeast,2A StopGo,MARV entry inh
S=c1nc(C2CC2)[nH]c2ccccc12,-3.6%,-37.5%,-6.9%,?,24.4%,13.4%,-2.7%,-11.0%
Cc1cc(NC(=O)CCCC(=O)O)nc(C)n1,-0.8%,-2.2%,-12.3%,6.3%,11.6%,-0.4%,-2.4%,-1.0%
COc1ccc(CCNCc2sccc2C)cc1,.,6.9%,-1.0%,.,.,12.8%,18.5%,.
CC(C)NC(=O)NC(=O)COc1cccc2c1OC(C)(C)C2,5.3%,-10.2%,22.2%,12.9%,-5.4%,4.0%,-8.9%,17.5%
COC(=O)C1=C(C)NC(=O)/C1=C\c1cc(C)n(-c2ccc(F)cc2)c1C,.,4.3%,-17.3%,.,-2.3%,-0.5%,19.4%,-1.4%[46.1 µM]
CN1CCN(c2oc(-c3ccccc3)nc2S(=O)(=O)c2ccccc2)CC1,.,.,0.4%,.,12.3%[46.1 µM],10.8%,0.3%,-0.7%[46.1 µM]

# Random draw from the library, and some 4.6% of all compounds hit somewhere here.
